Source: PubChem BioAssay
RVFV N-RNA FP: inhibitors of RVFV nucleoprotein–RNA binding, primary screen, biochemical, fluorescence polarization. RVFV N-RNA binding; stronger effect = lower value. % bound, % (concentration not given with the values). 0.1% of 20,000 active. AID 651828, 2012;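 active = between 0 and 58% in either replicate with normal brightness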;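 also: 100 nL library stock added to about 12 µL; 100% = protein and probe without compound and 0% = probe alone; numbers are from one replicate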
Target sequence (P21700 whole entry, looked up): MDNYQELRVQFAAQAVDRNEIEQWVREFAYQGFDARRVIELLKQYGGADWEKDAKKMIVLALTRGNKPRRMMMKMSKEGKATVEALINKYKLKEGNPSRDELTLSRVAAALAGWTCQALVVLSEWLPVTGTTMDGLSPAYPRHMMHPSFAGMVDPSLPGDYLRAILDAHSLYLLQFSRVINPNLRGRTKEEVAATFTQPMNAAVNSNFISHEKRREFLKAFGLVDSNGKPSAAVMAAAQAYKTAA
The depositor's hits bear a star; & = joins results of further samples.

Start of the listing, in advance:
molecule	RVFV N-RNA FP
COC(=O)c1sccc1NC(=O)c1cc(C)on1	93.8
O=C(Cn1cnc2c(cnn2CCO)c1=O)c1ccc(Cl)cc1	96.1

All compounds of this part, previewed entries included:
molecule	RVFV N-RNA FP
COC(=O)c1sccc1NC(=O)c1cc(C)on1	93.8
O=C(Cn1cnc2c(cnn2CCO)c1=O)c1ccc(Cl)cc1	96.1
C[C@@H](O)[C@H]1C(=O)N2C(C(=O)O)=C(S[C@@H]3CN[C@H](C(=O)N(C)C)C3)[C@H](C)[C@H]12	102.0&97.0
O=C(O)C1C2C=CC(O2)C1C(=O)Nc1ccc(S(=O)(=O)N2CCc3ccccc32)cc1 (configuration not stated)	90.3
Oc1cccc2c1Cc1ccccc1-2	104.1
O=C(CC(NCc1ccccc1)C(=O)O)Nc1cccnc1 (configuration not stated)	103.5
OC[C@H]1O[C@H](O[C@H]2[C@H](O)[C@@H](O)[C@H](O)O[C@@H]2CO)[C@H](O)[C@@H](O)[C@@H]1O	103.7
Clc1ccc(SCc2csc(-c3ccno3)n2)cc1	94.9
CCCCCC(=O)Nc1ccc(N2CCN(c3ccc(C(F)(F)F)cn3)CC2)nc1	92.6
COc1ccc2oc(=O)c(S(=O)(=O)c3ccccc3)cc2c1	85.0
Cc1ccccc1C(=O)NC(NCc1ccco1)(C(F)(F)F)C(F)(F)F	93.3
O=C(COc1ccccc1)N1CCN(C(=O)c2ccccc2)CC1	105.4
O=C1NC(=O)C2C1ON(c1ccc(Cl)cc1)C2c1ccccc1 (configuration not stated)	96.7
Cc1c(Br)sc2sc(-c3ccn(C)n3)c(C)c12	89.0
O=C(CS(=O)(=O)c1ccccc1)NCc1ccccc1	88.8
COc1ccc(NS(=O)(=O)c2ccc(NC(=O)c3ccc(Br)o3)cc2)cc1	97.8
COCCn1c(SCC(=O)c2ccccc2)nnc1-c1ccccc1	95.7
CS(=O)(=O)N1N=C(c2ccc(Br)cc2)CC1c1nc2ccccc2[nH]1 (configuration not stated)	116.1
O=C1c2ccccc2-c2onc3ccc(N4CCOCC4)c1c23	94.2
CCOc1ccccc1N/C=C/C(=O)C(C)(C)C	98.5

In the list so far, 2 have a CF3 group.
molecule	RVFV N-RNA FP
CCCCCC(=O)Nc1ccc(N2CCN(c3ccc(C(F)(F)F)cn3)CC2)nc1	92.6
Cc1ccccc1C(=O)NC(NCc1ccco1)(C(F)(F)F)C(F)(F)F	93.3

Some of the entries so far, with each value named:
COc1ccc2oc(=O)c(S(=O)(=O)c3ccccc3)cc2c1
- RVFV N-RNA FP: 85.0
COCCn1c(SCC(=O)c2ccccc2)nnc1-c1ccccc1
- RVFV N-RNA FP: 95.7

The listing continues:
molecule	RVFV N-RNA FP
Nc1c(-c2nnnn2-c2ccccc2)cnc2ccccc12	84.4
O=c1[nH]ccc2c(OCc3ccccn3)cccc12	98.5
C#CCOc1ccc(/C=C(/C#N)c2ccc(C(=O)O)cc2)cc1OC	98.9
CCC(=O)Nc1ccc2ncnc(Nc3cccc(Br)c3)c2c1	87.3
N[C@H]1CONC1=O	97.2&96.3
O=C1N=C(N2CCN(c3ccccc3)CC2)SC1Cc1ccccc1 (configuration not stated)	95.9
CC(C)(C)CC(=O)NCc1ccc(F)cc1	101.5
O=c1[nH]c2nonc2nc1Nc1ccccc1	80.6
CC1(C)C(C=C(Cl)Cl)C1C(=O)OCc1cccc(Oc2ccccc2)c1 (configuration not stated)	100.1
O=c1c2ccccc2nc2c3ccccc3c(NCc3ccco3)nn12	95.1
Cc1cc(=O)oc2cc(OCc3ccc4c(c3)OCO4)ccc12	102.1
COc1ccc(OCC(O)CNC(=O)C2CCN(c3nccc(C(F)(F)F)n3)CC2)cc1 (configuration not stated)	90.0
CSc1sc(C#N)c2c1/C(=N/OC(C)=O)CCC2	93.0
Cc1ccc(/C(=C\CN2CCCC2)c2ccccn2)cc1	99.9&100.7
CNC(=O)O/N=C/c1[nH]ncc1Br	95.4
CNC(=O)CN(c1ccc2c(c1)OCO2)S(C)(=O)=O	86.8
Cn1cnnc1SCc1cc(=O)c(OCC(=O)N2CCCCC2)co1	97.1
O=C(c1cc2nc(-c3ccccc3)cc(-c3ccccc3)n2n1)N1CCC2(CC1)OCCO2	104.1
Cc1noc(C)c1NC(=O)NC1CCCc2ccccc21 (configuration not stated)	93.5
COC(=O)Cn1c(=NC(=O)c2ccc(S(=O)(=O)N3CCCC3)cc2)sc2cc(NC(C)=O)ccc21	96.1
COc1ccc(P(=O)(CC(=O)O)c2ccc(OC)cc2)cc1	107.0
O=C(NCCCO)c1nc2ccccc2s1	91.6
CCC1C(=O)NCCN1C(=O)/C=C/c1ccccc1 (configuration not stated)	108.2
CN1C(=O)N(C(=O)c2ccccc2)C(=O)C(C)(C2=CCCCC2)C1=O (configuration not stated)	93.2
O=S(=O)(NCCCN1CCOCC1)c1ccccc1	95.7
CSc1nnc(CCN2CCN(C)CC2)n1C	96.4
O=C(OCCN1C(=O)c2ccccc2C1=O)Oc1ccccc1	93.9
CC(C)NP(=O)(NC(C)C)OP(=O)(NC(C)C)NC(C)C	98.6
Cc1cc(C)n(CC(O)Cn2c3ccccc3c3ccccc32)n1 (configuration not stated)	102.5
O=C(CCc1ccncc1)NNC(=O)N1Cc2ccccc2Oc2ccc(Cl)cc21	93.8
NNC(=O)c1ccc(C(F)(F)F)cc1	94.8
O=C(Nc1c[nH]c2ccccc12)N1CCCc2ccccc21	96.5
COCCSc1ccccc1C(=O)N1CCCC1	102.3
COc1cccc(C(=O)CN2C(=O)/C(=C/c3ccco3)N=C2c2ccccc2)c1	94.8
CC(=O)N1C(=O)C2(OCC3(CO2)COC2(OC3)C(=O)N(C(C)=O)c3ccccc32)c2ccccc21 (configuration not stated)	96.8
CC(C)(C)C(=O)ON=C(c1cccs1)c1cccs1	100.4
O=S(=O)(CCSc1ccc(C(F)(F)F)cn1)c1ccc(Cl)cc1	91.4
O=C1N=c2ccccc2=C1c1sc2ccccc2c1O	105.3
CC(C)(C)NCC(O)c1cc(O)cc(O)c1 (configuration not stated)	92.7&96.7
O=C(NC1C2CC3CC(C2)CC1C3)c1ccc2c(c1)OCO2 (configuration not stated)	92.7
C=CCSc1nc2[nH]ncc2c(=O)[nH]1	97.1
O=C(O)CSc1nccn1Cc1ccccc1	84.2
Cc1ccc(C(=O)NNc2nnc(C)c(=O)[nH]2)cc1	96.8
O=S(=O)(Nc1nc(SCc2ccc(Cl)cc2)n[nH]1)c1cccs1	94.5
Cc1[nH]nc2c1C1(C(=O)N2)C(C#N)=C(N)Oc2ccc(Br)cc21 (configuration not stated)	83.3
N#C/C(=C\Nc1ccccc1)c1ccccc1	96.5
COc1ccc2c(c1)s/c(=N\NC(=S)NC(=O)CN1C(=O)CCC1=O)n2C	98.5
O=C(CSc1nc2ccccc2o1)N1CCc2c([nH]c3ccccc23)C1C(F)(F)F (configuration not stated)	105.3
CCc1[nH]c(-c2ccc(OC)cc2)nc1-c1ccncc1	104.9
CC1C(=O)N2CCCc3cc(S(=O)(=O)N4CCc5ccccc54)cc1c32 (configuration not stated)	96.0
O=C(O)C1CCCCC1C(=O)Nc1nncs1 (configuration not stated)	92.8
c1ccc([C@H]2CN3CCSC3=N2)cc1	92.3&97.6
N/C(=N\OC(=O)NC1CCCCC1)c1ccc(Cl)cc1	88.7
Cc1ccc2c(c1)CN1CN2Cc2cc(C)ccc21	101.7
COCCn1c(=NC(=O)CCOc2ccccc2)sc2cc(OC)ccc21	94.1
Cc1ccc(-c2cc(=O)c(=O)[nH][nH]2)cc1	98.0
O=C(NNc1ncccc1-n1cccc1)Nc1ccc(OC(F)(F)F)cc1	101.7
CCc1cc(=O)oc2c(C)c(OC3CCCCC3=O)ccc12 (configuration not stated)	93.3
CC(=O)Nc1cccc(NC(=O)CSc2ncc(C(=O)Nc3ccccc3)c(=O)n2C)c1	91.9
O=c1[nH]c(=S)[nH]c2c1CCCC2	102.4

(list continues)
molecule	RVFV N-RNA FP
CCOc1ccc(-c2cn(C(=O)Nc3ccccc3)nc2N)cc1	98.0
N#CC1(C#N)C(C#N)(C#N)C12CCCCC2	98.7
Cc1oc(-c2ccccc2)cc1C(=O)NC1CCN(Cc2ccccc2)CC1	102.7
COc1cc([C@@H]2c3cc4c(cc3[C@H](O)[C@H]3COC(=O)[C@H]23)OCO4)cc(OC)c1OC	96.6
CC(C)[C@H](CO)Nc1nc(Nc2cc(N)cc(Cl)c2)c2ncn(C(C)C)c2n1	110.3
C=CCN(CC=C)C(=O)c1ccc(OC)c(Br)c1	91.5
CS(=O)(=O)N/N=C/c1ccccc1	93.1
O=C(NC1CCCCC1)N1CCN(c2ccccc2F)CC1	94.9
CC(NC(=O)OC(C)(C)C)c1nnc(SCC(=O)N(C)C)o1 (configuration not stated)	95.7
CCSc1cc(C)[nH]c(=O)n1	88.3
CCC(=O)NC1(C(F)(F)F)C(=O)NC(C)=C1C(=O)OC (configuration not stated)	97.0
C=CCN1C(=O)C2Cc3c([nH]c4ccccc34)C(c3ccc(O)cc3)N2C1=S (configuration not stated)	98.1
O=C1C2(CCC13COC(c1ccco1)OC3)COC(c1ccco1)OC2 (configuration not stated)	93.6
O=C(OCc1ccccc1)C1=NNC2C(=O)N(Cc3ccccc3)C(=O)C12 (configuration not stated)	98.9
FC(F)(F)c1cccc(N2CCN(Cc3ccoc3)CC2)c1	101.9
CCN1CCCC1Cn1c(=S)[nH]c2ccccc2c1=O (configuration not stated)	94.0
CCC(=O)Nc1ccc(C(=O)Nc2ccc(S(=O)(=O)N3CCCCC3)cc2)cc1	89.7
c1ccc2c(NC3=NCCS3)cccc2c1	98.1
COCCNC(=S)Nc1ccn(C)n1	94.9
COc1ccc(N/C=C2/CCCCC2=O)cc1	107.6
O=C(O)c1ccc(C23CC4CC(CC(C4)C2)C3)o1	99.2
O=C1C2C(c3ccccc3)OC3(C(=O)c4ccccc4C3=O)C2C(=O)N1C1CCCCC1 (configuration not stated)	91.1
Cn1c(-c2sc(=S)n(-c3ccccc3)c2N)nc2ccccc21	94.7
O=C(NN1C(=O)/C(=C\C=C\c2ccco2)SC1=S)c1ccccc1O	98.5
COC(=O)c1c(O)ccc(-c2ccc(NC(C)=O)cc2)c1C(=O)OC	104.5
CC1CC(OCC(O)CN)CC(C)(C)C1 (configuration not stated)	92.0
Cn1ncc(N2CCN(C(=O)c3ccc(Cl)cc3)CC2)c(Cl)c1=O	92.3
O=C1C=C(NCc2ccc(Cl)cc2)CCC1	98.0
CCc1c(O)nc(SC(C)C(=O)Nc2cccc(Cl)c2)[nH]c1=O (configuration not stated)	93.9
COC1C2C3CC4C5C3C1C5C(O)(c1ccccc1)C42 (configuration not stated)	90.8
CCOCCOc1cccc2oc(C(=O)OCC)cc(=O)c12	86.9
CN1C(=O)c2cccc(NC(=O)CSc3ccc(F)cc3)c2C1=O	96.2
CCC(C)(C)N=C(NC#N)Nc1cccnc1	97.9
CC(=O)Nc1nc(-c2cccnc2)cs1	90.7
O=C(NCc1ccccc1)NC1=NCCS1	94.9
O=C(CSc1ncnc2c1cnn2-c1ccc(F)cc1)Nc1ccc2c(c1)OCO2	97.4
S=c1[nH]nc(C2COc3ccccc3O2)n1-c1ccccc1 (configuration not stated)	94.4
C=CCNc1nc(N2CCCC2)nc2ccccc12	100.4
CN(C)[C@@H]1C(=O)C(C(N)=O)=C(O)[C@@]2(O)C(=O)C3=C(O)c4c(O)cccc4[C@@](C)(O)[C@H]3[C@H](O)[C@@H]12	103.2
Cc1c(C(=O)O)sc2[nH]c(=S)[nH]c(=O)c12	95.0
COC(=O)C1C2C=CC3(CN(C(C)c4ccncc4)C(=O)C13)O2 (configuration not stated)	100.8
CCP(=O)(CC)Nc1cccc(C(F)(F)F)c1	94.1
O=C(NCc1cc(F)cc2c1OCOC2)c1ccc(N2CCOCC2)nc1	94.3
Cc1oc(C(=O)NC(=O)Nc2cccc(C(F)(F)F)c2)nc1-c1ccccc1	90.6
COCCNC(=O)Cc1ccc(C)cc1	95.6
COc1ccc(OC)c(C(=O)c2ccc(C(=O)N3CCCCC3)cc2)c1	101.9
CC(C)(CO)NC(=O)NCC12CC3CC(CC(C3)C1)C2	95.4
Cc1ccc(Nc2nc3nonc3n3nnnc23)cc1C	112.0
c1ccc(-c2[nH]ncc2CN2CCN(Cc3ccc4c(c3)OCO4)CC2)cc1	96.3
OC1c2ccccc2-c2ccccc2C1O (configuration not stated)	92.3
O=C(NCCCc1ccccc1)c1ccc(Br)o1	103.2
Cc1cc(F)ccc1S(=O)(=O)Nc1ccc2c(c1)N(C(=O)C1CC1)CCC2	88.2
CC1S/C(=N/N=C/c2ccccc2)NC1=O (configuration not stated)	105.2
O=C1CC(Sc2ccc(Cl)cc2)C(=O)N1Cc1cccnc1 (configuration not stated)	93.6
CCC(C)NC(=O)/C=C/c1ccc(C)cc1 (configuration not stated)	99.6
Cc1ccnc(NC(=O)c2ccc3c(c2)C(=O)N(Cc2ccco2)C3=O)c1	92.0
Cn1c(CN2CC(c3ccccc3)CC2=O)n[nH]c1=S (configuration not stated)	96.3
CC(C)(C)NC[C@H](O)COc1nsnc1N1CCOCC1	95.1&101.2
COc1cc(OC)cc(-c2cc3cnc(N)nc3nc2NC(=O)NC(C)(C)C)c1	100.7
Cn1ccnc1S/C(=C/C=C(C#N)C#N)c1ccc(Cl)cc1	91.3
Cc1ccc(NS(=O)(=O)N2CCCCC2)cc1	93.8
NS(=O)(=O)c1ccc(NC(=O)CN2CCCC2)cc1	90.2
CCCCc1ccc(NC(=O)Nc2cc(C(C)(C)C)nn2C)cc1	102.2

A portion of the library (hit frequency here may not be typical).
